# High-throughput results from PubChem.
# Exocytosis inh: lytic granule exocytosis inhibition; TALL-104 LAMP-1 surface exposure, flow cytometry; cells stimulated with thapsigargin and PMA; inhibition, % at 10 µM; 0.66% of 360,000 active; AID 651702;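 active = inhibition above about 55%, limit read from the data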
# Glyco luc inh: blocks N-linked glycosylation in D54 reporter cells; 0.23% of 360,000 active; D54 ERlucT glycosylation luciferase reporter, 24 h; percent of 100 nM tunicamycin response; reporter increase, % at 12.5 µM;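 active = mean luciferase reporter signal, scaled so untreated is 0 and the glycosylation-blocking control 100, at or above a set limit in every replicate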;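 note: luciferase carries N-glycosylation sites so blocking glycosylation raises the light; 0% = median of neutral control wells and 100% = median of 100 nM tunicamycin wells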
# ABHD5 PLIN5 PPI: blocks binding of human ABHD5 to perilipin-5 | inhibition, % at 4 µM | Q00G26+Q8WTS1 | 0.78% of 360,000 active | Split G. princeps luciferase complementation, luminescence, 4 h;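 active = inhibition above the mean inhibition across every tested compound plus 3 SD, cut at about 22% in these data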;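 note: 0% = DMSO only wells and the 100% control is not disclosed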
# NOD2-RIPK2 inh: NOD2-RIPK2 protein interaction inhibition | inhibition, % at 4.98 µM | O43353 | CHO BLA complementation NOD2-RIPK2, CCF4 ratio | 0.38% of 360,000 active; in the data active = inhibition above about 21%;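 note: 0% = vehicle only and 100% = reference blocker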
# Vif inh: HIV Vif inhibition. HEK293T cells, Vif self-association by quenched fluorescence, imaging, 24 h. inhibition, % at 7.49 µM. 0.35% of 340,000 active. AID 602346; in the data active = inhibition above about 50%, passing the limit was not always enough; note: some results filed as inactive read as strong as hits
# aDG glyco up: increases alpha dystroglycan glycosylation | Pro5-aDG cells, alpha-DG glycosylation AlphaScreen (IIH6); 0% Pro5, 100% B10-LARGE cell signal | AID 624168 | 0.22% of 360,000 active | activation, % at 10 µM;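 active = activation of at least 8% versus controls, or a plate z-score of at least 8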;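 note: Pro5 are CHO cells carrying HIG-tagged alpha-DG that lacks glycosylation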
# TLR9-MyD88 inh: blocks human TLR9 binding to MyD88. Q9NR96+Q99836. CHO BLA complementation TLR9-MyD88, CCF4 FRET ratio. inhibition, % at 4.98 µM. 0.21% of 340,000 active;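 active = inhibition above the mean over all tested compounds plus 3 SD, cut at about 21% in these data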;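 note: 0% = DMSO only wells and 100% = clavulanate BLA inhibitor control wells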
# ABCB6 inh 2: blocks the human ABCB6 transporter; K562-ABCB6 porphyrin accumulation, flow cytometry, 1 h; stronger effect = lower value; fluorescence ratio to DMSO, % at 10 µM; 0.19% of 360,000 active;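 active = fluorescence ratio to DMSO below 75%, the collection mean minus 3 SD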;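 note: signal is porphyrin accumulated inside mitochondria; 100% equals median channel fluorescence of DMSO control wells; lower ratio means ABCB6 inhibition with less porphyrin fluorescence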
# Target sequence (Q9NP58 whole entry, looked up): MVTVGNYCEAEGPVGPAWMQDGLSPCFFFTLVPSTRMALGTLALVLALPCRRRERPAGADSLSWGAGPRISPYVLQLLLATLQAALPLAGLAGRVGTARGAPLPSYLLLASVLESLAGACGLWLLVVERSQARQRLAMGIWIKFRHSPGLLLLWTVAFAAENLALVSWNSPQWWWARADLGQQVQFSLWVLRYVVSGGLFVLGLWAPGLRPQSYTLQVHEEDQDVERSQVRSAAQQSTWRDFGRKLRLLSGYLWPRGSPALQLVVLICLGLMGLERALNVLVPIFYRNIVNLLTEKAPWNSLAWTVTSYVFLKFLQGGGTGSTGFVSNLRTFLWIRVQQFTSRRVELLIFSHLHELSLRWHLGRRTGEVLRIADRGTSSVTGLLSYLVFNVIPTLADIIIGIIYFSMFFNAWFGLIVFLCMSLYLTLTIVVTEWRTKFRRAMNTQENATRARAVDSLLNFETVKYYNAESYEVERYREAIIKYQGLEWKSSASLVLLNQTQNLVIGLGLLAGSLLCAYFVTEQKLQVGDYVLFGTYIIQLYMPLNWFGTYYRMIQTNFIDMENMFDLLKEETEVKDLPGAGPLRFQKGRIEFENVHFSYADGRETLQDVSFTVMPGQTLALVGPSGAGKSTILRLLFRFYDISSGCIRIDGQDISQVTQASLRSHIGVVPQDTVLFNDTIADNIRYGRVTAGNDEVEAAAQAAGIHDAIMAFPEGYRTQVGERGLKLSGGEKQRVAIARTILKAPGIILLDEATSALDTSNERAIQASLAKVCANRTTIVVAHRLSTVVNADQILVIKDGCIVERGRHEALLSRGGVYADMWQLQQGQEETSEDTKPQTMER
# * = called active by the depositor; & = joins results of further samples.
# Start of the data: the first 7 compounds as a preview:
# Assay codes – A = Exocytosis inh; B = Glyco luc inh; C = ABHD5 PLIN5 PPI; D = NOD2-RIPK2 inh; E = Vif inh; F = aDG glyco up; G = TLR9-MyD88 inh; H = ABCB6 inh 2
Structure: COCCCC/C(=N\OCCN)c1ccc(C(F)(F)F)cc1
  A = 1&4&-1&-4&2	B = -3&4&-3&0&-1	C = 4&10&2&8&5	D = -11&-1&4&-10&-12	E = -4&-6&17&1&-7	F = -0.1&0.1&0.2&0.4&0.1	G = -7&9&5&-10&-1	H = 100&94&97&103&98

Structure: Nc1ccn([C@H]2CS[C@@H](CO)O2)c(=O)n1
  A = 0	B = -1	C = -1	D = 1	E = 2	F = 0.1	G = -2	H = 100

Structure: Nc1[nH]c(=O)ncc1F
  A = 0	B = -1	C = 7	D = -10	E = -5	F = 0.0	G = 7	H = 90

Structure: CC(=O)CC(c1ccccc1)c1c(O)c2ccccc2oc1=O (stereo unspecified)
  A = -5&1&-1	B = -1&1&-1	C = -5&6&5	D = 6&-7&-15	E = -2&-6&-7	F = 0.2&-0.1&0.6	G = -10&2&7	H = 104&102&100

Structure: C#C[C@]1(O)CCC2C3CCC4=CC(=O)CC[C@@H]4C3CC[C@@]21C (stereo partly specified)
  A = -2	B = -3	C = 5	D = -9	E = -6	F = -0.2	G = 9	H = 100

Structure: Cc1cn[nH]c1
  A = 5	B = 2	C = 1	D = -4	E = -11	F = 0.0	G = 9	H = 95

Structure: Cc1nc2c(-c3ccc(F)cc3)cnn2c(N)c1-c1ccccc1
  A = 3	B = -15	C = -9	D = -1	E = 4	F = 0.7	G = -3	H = 96

# The list itself, from the first entry:
# Assay codes – A = Exocytosis inh; B = Glyco luc inh; C = ABHD5 PLIN5 PPI; D = NOD2-RIPK2 inh; E = Vif inh; F = aDG glyco up; G = TLR9-MyD88 inh; H = ABCB6 inh 2
Structure: COCCCC/C(=N\OCCN)c1ccc(C(F)(F)F)cc1
  A = 1&4&-1&-4&2	B = -3&4&-3&0&-1	C = 4&10&2&8&5	D = -11&-1&4&-10&-12	E = -4&-6&17&1&-7	F = -0.1&0.1&0.2&0.4&0.1	G = -7&9&5&-10&-1	H = 100&94&97&103&98

Structure: Nc1ccn([C@H]2CS[C@@H](CO)O2)c(=O)n1
  A = 0	B = -1	C = -1	D = 1	E = 2	F = 0.1	G = -2	H = 100

Structure: Nc1[nH]c(=O)ncc1F
  A = 0	B = -1	C = 7	D = -10	E = -5	F = 0.0	G = 7	H = 90

Structure: CC(=O)CC(c1ccccc1)c1c(O)c2ccccc2oc1=O (stereo unspecified)
  A = -5&1&-1	B = -1&1&-1	C = -5&6&5	D = 6&-7&-15	E = -2&-6&-7	F = 0.2&-0.1&0.6	G = -10&2&7	H = 104&102&100

Structure: C#C[C@]1(O)CCC2C3CCC4=CC(=O)CC[C@@H]4C3CC[C@@]21C (stereo partly specified)
  A = -2	B = -3	C = 5	D = -9	E = -6	F = -0.2	G = 9	H = 100

Structure: Cc1cn[nH]c1
  A = 5	B = 2	C = 1	D = -4	E = -11	F = 0.0	G = 9	H = 95

Structure: Cc1nc2c(-c3ccc(F)cc3)cnn2c(N)c1-c1ccccc1
  A = 3	B = -15	C = -9	D = -1	E = 4	F = 0.7	G = -3	H = 96

Structure: OCCN1CCN(CCCN2c3ccccc3Sc3ccc(C(F)(F)F)cc32)CC1
  A = 23	B = -1	C = 10	D = 3	E = -5	F = 0.2	G = 8	H = 97

Structure: Cc1ccc(O)c([C@H](CCN(C(C)C)C(C)C)c2ccccc2)c1
  A = -2&-2	B = 4&3	C = -6&-9	D = -10&-10	E = 1&-4	F = 0.2&-0.1	G = -3&-2	H = 98&97

Structure: CNNCc1ccc(C(=O)NC(C)C)cc1
  A = -11	B = 2	C = 10	D = -1	E = -5	F = -0.1	G = 4	H = 96

Structure: C#C[C@]1(O)CC[C@H]2[C@@H]3CCC4=C(CCC(=O)C4)[C@H]3CC[C@@]21C
  A = 2	B = -2	C = 0	D = -2	E = 2	F = 0.0	G = -6	H = 100

Structure: CC[C@H]1OC(=O)[C@H](C)[C@@H](O[C@H]2C[C@@](C)(OC)[C@@H](O)[C@H](C)O2)[C@H](C)[C@@H](O[C@@H]2O[C@H](C)C[C@H](N(C)C)[C@H]2O)[C@](C)(O)C[C@@H](C)C(=O)[C@H](C)[C@@H](O)[C@]1(C)O
  A = -2	B = 3	C = 4	D = -8	E = -9	F = 0.0	G = -10	H = 96

Structure: O=c1[nH]c(=O)n(C2C[C@H](O)[C@@H](CO)O2)cc1C(F)(F)F (stereo partly specified)
  A = 0	B = 7	C = 8	D = 7	E = 0	F = -0.3	G = -9	H = 106

Structure: Nc1c(Br)cc(Br)cc1CNC1CCC(O)CC1 (stereo unspecified)
  A = 5&1	B = -1&-1	C = -3&-4	D = -6&-6	E = -3&7	F = 0.0&-0.1	G = -3&4	H = 106&99

Structure: CN1C2CCC1CC(OC(c1ccccc1)c1ccccc1)C2 (stereo unspecified)
  A = 0	B = -1	C = 6	D = 2	E = 7	F = 0.3	G = 11	H = 95

Structure: CCCc1nn(C)c2c(=O)[nH]c(-c3cc(S(=O)(=O)N4CCN(C)CC4)ccc3OCC)nc12
  A = 1	B = 7	C = -6	D = -7	E = -7	F = 0.1	G = 3	H = 100

Structure: Cc1nc2n(c(=O)c1CCN1CCC(c3noc4cc(F)ccc34)CC1)CCCC2
  A = 6	B = -3	C = -1	D = -7	E = -1	F = -0.2	G = -9	H = 104

Structure: Cc1nc(-c2ccc(C(=O)Nc3cccc(F)c3)cc2)cs1
  A = 4	B = -18	C = -1	D = 7	E = -23	F = 0.1	G = 8	H = 96

Structure: CCCCC[C@H](O)/C=C/[C@@H]1[C@@H](C/C=C\CCCC(=O)O)[C@@H](O)C[C@H]1O
  A = 4	B = 20	C = 1	D = -8	E = -1	F = -0.1	G = 10	H = 98

Structure: COc1ccccc1OC[C@H](O)CO
  A = -1	B = 0	C = 1	D = -10	E = 7	F = 0.0	G = -2	H = 98

Structure: CN1CCN(CCCN2c3ccccc3Sc3ccc(Cl)cc32)CC1
  A = 25	B = 1	C = 16	D = 6	E = 1&2	F = 0.2	G = -1	H = 99

Structure: O=C(c1ccc(OCCN2CCCCC2)cc1)c1c(-c2ccc(O)cc2)sc2cc(O)ccc12
  A = 28&42	B = -3&-1	C = 11&11	D = 0&2	E = 1&14	F = -0.1&0.3	G = 5&2	H = 103&89

Structure: CC1(C)SC2C(NC(=O)C3(N)CCCCC3)C(=O)N2C1C(=O)O (stereo unspecified)
  A = -1	B = -1	C = -1	D = -3	E = -3	F = 0.1	G = -5	H = 99

Structure: O=C1OCCN1/N=C/c1ccc([N+](=O)[O-])o1
  A = 1	B = 10	C = 2	D = -12	E = -12	F = 1.5	G = 5	H = 95

Structure: Cc1ccsc1C(=O)OCC(=O)c1cc(C)n(C)c1C
  A = -4	B = -24	C = 1	D = 1	E = 5	F = 0.4	G = -7	H = 100

Structure: OC(c1cc(C(F)(F)F)nc2c(C(F)(F)F)cccc12)C1CCCCN1 (stereo unspecified)
  A = 4	B = 0	C = 4	D = 13	E = -3	F = -0.3	G = 0	H = 97

Structure: COCCOC(=O)C1=C(C)NC(C)=C(C(=O)OC(C)C)C1c1cccc([N+](=O)[O-])c1 (stereo unspecified)
  A = 2	B = 5	C = 5	D = -10	E = -7	F = 2.8	G = -2	H = 98

Structure: N#Cc1c(-c2cccs2)nc(SCC(=O)c2ccc(Br)cc2)[nH]c1=O
  A = 5	B = 0	C = -5	D = -4	E = -1	F = 0.1	G = -15	H = 100

# 2 consecutive entries out of the list so far, quoted:
# Assay codes – A = Exocytosis inh; B = Glyco luc inh; C = ABHD5 PLIN5 PPI; D = NOD2-RIPK2 inh; E = Vif inh; F = aDG glyco up; G = TLR9-MyD88 inh; H = ABCB6 inh 2
Structure: COCCOC(=O)C1=C(C)NC(C)=C(C(=O)OC(C)C)C1c1cccc([N+](=O)[O-])c1 (stereo unspecified)
  A = 2	B = 5	C = 5	D = -10	E = -7	F = 2.8	G = -2	H = 98

Structure: N#Cc1c(-c2cccs2)nc(SCC(=O)c2ccc(Br)cc2)[nH]c1=O
  A = 5	B = 0	C = -5	D = -4	E = -1	F = 0.1	G = -15	H = 100

# Some of the compounds tested; the hit share may differ from the screen's.
